# N370S GC – qHTS Assay for Inhibitors and Activators of N370S glucocerebrosidase as a Potential Chaperone Treatment of Gaucher Disease; N370S GC spleen homogenate, 4MU-glucoside fluorescence; Potency, µM (doses to about 59.4 µM), for the others: at the top dose activity change, negative = inhibition, most hits filed as inhibitors; Lysosomal acid glucosylceramidase (Homo sapiens), P04062; 330,000 compounds, 0.092% hits; active means well fitted inhibition curve with a large enough effect;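 further: 0% = full enzyme activity and -100% = no enzyme basal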
# * marks the source's active call; other numbers are inactive results. Potency means the concentration at half of the fitted maximal effect. The list is partial; most or all hits stand in other tables.
# The first five compounds (preview)
SMILES,N370S GC
COc1ccc(NC(=O)Cn2c3ccc(OC)cc3c3nc4n(c(=O)c32)CCS4)cc1,5%
O=C(O)/C=C/c1cnc2ccccc2n1,1%
CN1C(=S)SC(/[N+]([O-])=C\c2ccco2)C1(C)C (stereo not given),-4%
CCC1(CC)C(=O)C2=C3C1[C@H](C(=O)OC)C=C(C(=O)OC)C[C@H]3n1c(=O)n(-c3ccccc3)c(=O)n1[C@H]2C (stereo not given in full),2%
CCCCc1nnc(NC(=O)C2CC(=O)N(Cc3ccccc3)C2)s1 (stereo not given),-6%

# This part in full, from the start:
SMILES,N370S GC
COc1ccc(NC(=O)Cn2c3ccc(OC)cc3c3nc4n(c(=O)c32)CCS4)cc1,5%
O=C(O)/C=C/c1cnc2ccccc2n1,1%
CN1C(=S)SC(/[N+]([O-])=C\c2ccco2)C1(C)C (stereo not given),-4%
CCC1(CC)C(=O)C2=C3C1[C@H](C(=O)OC)C=C(C(=O)OC)C[C@H]3n1c(=O)n(-c3ccccc3)c(=O)n1[C@H]2C (stereo not given in full),2%
CCCCc1nnc(NC(=O)C2CC(=O)N(Cc3ccccc3)C2)s1 (stereo not given),-6%
COc1ccc2nc(SC(C)C(=O)NCC(=O)Nc3ccc(F)c(F)c3F)[nH]c2c1 (stereo not given),-8%
Clc1ccccc1Nc1c2c(nc3ncnn13)CCC2,11%
O=C(CCc1nnc2ccc(NCc3ccco3)nn12)N1CCN(c2ccc(F)cc2)CC1,-18%
CCOC(=O)C1(Cc2cccc(F)c2)CCN(CC2CC2)CC1,6%
CCCN(CCC)C(=O)CSc1nc2ccccc2c(=O)n1CC1COc2ccccc2O1 (stereo not given),1%
O=C(NCCCc1nc2ccccc2[nH]1)c1ccco1,-2%
O=S(=O)(c1cccs1)N1CCC2(CC1)OCCO2,-7%
O=C(NN1CCCCC1)c1ccccc1,1%
COc1ccc(-c2cc(C(=O)O)c(C)o2)cc1OC,-3%
O=C(O)c1ccc([N+](=O)[O-])c(CS(=O)(=O)c2ccc(Cl)cc2)c1,0%
CCOC(=O)/C(=C\c1ccc(Cl)cc1)c1nc2sc(C)c(C)c2c(=O)[nH]1,17%
Cc1cccc(C)c1NC(=O)CS(=O)CC(=O)NCC1OCCc2ccccc21 (stereo not given),-8%
Cc1nonc1NC(=O)c1ccc(Cl)c(S(=O)(=O)N2CCCCC2)c1,21%
CO/N=C/c1cc([N+](=O)[O-])ccc1Sc1ccc(C)cc1,5%
Cc1cc(=O)[nH]c(SCC(=O)Nc2ccc(C(=O)O)cc2)n1,2%
COc1cccc(NC(C)C(=O)Nc2cc([N+](=O)[O-])ccc2Cl)c1 (stereo not given),6%
CCOC(=O)C(C)Sc1nnc(Cc2cc(=O)[nH]c(=O)[nH]2)n1-c1ccc(Cl)cc1 (stereo not given),-1%
N#Cc1nc(Cc2cccc3ccccc23)oc1NCCCn1ccnc1,-28%
Cc1ccc(NC(=O)COc2ncnc3cc([N+](=O)[O-])ccc23)cc1S(=O)(=O)N1CCOCC1,-17%
CCO[C@@H]1OC(C(=O)O)=C[C@H](c2ccc(C(F)(F)F)cc2)[C@H]1CCCO,-7%

# Overlap with the part before: three entries, then new ones.
SMILES,N370S GC
N#Cc1nc(Cc2cccc3ccccc23)oc1NCCCn1ccnc1,-28%
Cc1ccc(NC(=O)COc2ncnc3cc([N+](=O)[O-])ccc23)cc1S(=O)(=O)N1CCOCC1,-17%
CCO[C@@H]1OC(C(=O)O)=C[C@H](c2ccc(C(F)(F)F)cc2)[C@H]1CCCO,-7%
CCCCOC(=O)Nc1nnc(CC)s1,-4%
Cc1ccc(N(Cc2ccccc2)C(=O)CN2C(=O)NC3(CCCC3)C2=O)cc1,-1%
CC(C(=O)N1CCN(c2ccccc2)CC1)N1C(=O)C2CC=CCC2C1=O (stereo not given),7%
Cc1cc(=O)oc2cc(OCC(=O)NC3CC(C)(C)NC(C)(C)C3)c(Cl)cc12,-3%
O=C(OCC(=O)N(C1CCCCC1)C1CCCCC1)c1cnccn1,9%
CC(Sc1nnnn1C1CC1)C(=O)Nc1cccc(S(=O)(=O)N2CCOCC2)c1 (stereo not given),4%
CC(=O)OC1CC2C(C)(C)C(=O)CC[C@]2(C)C2CC[C@@]3(C)C(c4ccoc4)OC(=O)C4OC43[C@]12C (stereo not given in full),-4%
COc1c(F)c(F)c(C(=O)Nc2ccccc2N2CCN(C(C)=O)CC2)c(F)c1F,-1%
COc1ccc(Cl)cc1N1C(=O)C2CCCN2C1c1ccccc1F (stereo not given),10%
CS(=O)(=O)N(CC(=O)NCCC1=CCCCC1)c1ccc2c(c1)OCO2,5%
Cc1noc(C)c1C(=O)NC(C)C12CC3CC(CC(C3)C1)C2 (stereo not given),-5%
Cc1ccc(S(=O)(=O)N2CCC3(CC2)OCCN3S(=O)(=O)c2cccs2)cc1,-2%
Cc1ccc(S(=O)(=O)N(C)c2c(C)ccc(S(N)(=O)=O)c2C)cc1,-2%
O=C1NC(c2ccncc2)C(C(=O)c2cccs2)C(O)(C(F)(F)F)N1 (stereo not given),-27%
O=C(CSc1ncn(-c2ccccc2)n1)NCc1ccccc1,9%
C=CCNc1ncnc2c1[nH]c1ccccc12,-3%
O=C(CN1C(=O)C2CC=C(Cl)CC2C1=O)Nc1ccc(C(=O)O)cc1 (stereo not given),-2%
OC(C#CCN1CCCC1)c1ccccc1 (stereo not given),4%
CC(=O)N1c2c(cc(Br)cc2S(=O)(=O)NCc2ccccc2)CC1C (stereo not given),0%
Clc1ccc2nc(CSc3nc4ccccc4o3)cn2c1,0%
CN(C)/C(=N\S(=O)(=O)c1ccccc1)c1ccc([N+](=O)[O-])cc1,-20%
COc1cc(NC(=O)c2cccc([N+](=O)[O-])c2)ccc1NC(=O)c1ccco1,14%
COc1ccc(NC(=O)CSc2nc3ccccc3n2-c2ccccc2)c([N+](=O)[O-])c1,13%
Cc1nc2nc[nH]n2c(=O)c1NS(=O)(=O)c1ccc(C(C)(C)C)cc1,5%
CSc1nc2ccc(S(=O)(=O)N3CCCC3)cc2s1,4%

# Next part.
SMILES,N370S GC
COCCCn1c(Cc2csc(Nc3ccccc3)n2)nnc1SCC(N)=O,8%
CC1=C(C(=O)OCC(C)C)C(c2cccs2)NC(=S)N1 (stereo not given),4%
O=[N+]([O-])c1ccc(C2(O)CN(c3ccccc3)C3=[N+]2CCS3)cc1 (stereo not given),-8%
CC(NC(=O)c1cc(S(=O)(=O)N2CCOCC2)ccc1N1CCCC1)c1ccc(Cl)c(Cl)c1 (stereo not given),-7%
Cc1ccc2c(C)c(C(=O)Nc3c(C)n(C)n(-c4ccccc4)c3=O)oc2c1C,6%
Cc1ccc(N(CC(O)CN2CCCC2)S(=O)(=O)c2ccccc2)cc1 (stereo not given),2%
CCOc1ccccc1NC(=O)CSc1nnnn1Cc1ccccc1,16%
CCN(c1ccccc1)c1cc(NC)[n+](C)c(C)n1,-8%
O=c1c2ccccc2cnn1-c1ccc2ccccc2c1,11%
CC1(C)CC(NC(=O)c2ccc(Cl)c(Cl)c2)CC(C)(C)N1,-2%
CCOc1ccc(S(=O)(=O)N(CC)CC)cc1NS(=O)(=O)c1ccc(F)c(F)c1F,-4%
Cc1cc(C)n(-c2nc3ccccc3nc2N2CCN(C(=O)c3ccc(F)cc3)CC2)n1,6%
COC(=O)C(Cc1ccccc1)NC(=O)CNC(=O)c1ccccc1OC (stereo not given),0%
CC(=O)NCCOC(=O)Nc1sc(=S)n(C)c1C,-1%
Cc1cccc(C)c1NC(=O)CN(C)C(=O)c1cccc(-n2cccc2)c1,5%
Cc1occc1C(=O)N(Cc1nc(-c2ccccc2)no1)C(C)C,2%
COc1ccc(S(=O)(=O)Nc2nc3c(s2)C(=O)CC(C)(C)C3)cc1,-5%
Cc1csc(C(C#N)C(=O)c2ccc(S(=O)(=O)N3CCCC3)cc2)n1 (stereo not given),-11%
Cc1cc(C)cc(CSCC(=O)N/N=C/c2ccc(OCC(=O)NCc3ccco3)cc2)c1,-2%
CN(C)CCCN1C(=O)c2cccc3c(Br)ccc(c23)C1=O,-20%
CCOc1cc(/C=N/NC(=O)c2cccnc2)ccc1OCC(=O)N(C)C,2%
CCOc1ccc(/C=C2\SC(=S)N(Nc3ccccc3)C2=O)cc1OC,-3%
Cc1cc(C)c(OCC(=O)NCC(C)(C)N2CCOCC2)c(C)c1,-5%
COc1ccc([N+](=O)[O-])cc1NC(=O)CCN1CCN(c2ccccc2)CC1,-5%
O=C(NC1CCCCNC1=O)c1ccc(Cl)cc1 (stereo not given),-17%

# More entries.
SMILES,N370S GC
CS(=O)(=O)N1CCCC(C(=O)NCc2cccs2)C1 (stereo not given),2%
CCCc1nnc(NC(=O)c2nc(S(=O)(=O)Cc3ccc(C)cc3)ncc2Cl)s1,0%
CCn1ccnc1CN(C)C(=O)C1CCC(=O)N(Cc2cccc(F)c2)C1 (stereo not given),-5%
CC(C)(C)c1ccc(S(=O)(=O)Nc2ccccn2)cc1,-3%
COc1cc(OC)c(CN2CCC(CO)(CCOc3ccccc3)CC2)c(OC)c1,6%
COc1ccc(N(CC(=O)Nc2ccccc2C(=O)NCCc2ccccc2)S(C)(=O)=O)cc1OC,0%
COc1cccc(C2CCCN2Cc2nc(CC3CC3)no2)c1 (stereo not given),2%
O=C(O)c1ccc(COc2ccc(/C=N/NC(=O)c3cccs3)cc2)cc1,-2%
CN(C)c1ccc(CN(C(=O)COc2ccc(F)cc2)C2CCS(=O)(=O)C2)cc1 (stereo not given),16%
CCOC(=O)N1CCN(C(=O)C2CCN(C(=O)c3cc(OC)cc(OC)c3)CC2)CC1,3%
O=C(COC(=O)c1ccccc1Nc1ccccc1)NCc1ccccc1Cl,2%
COc1ccc2c(c1)OC(c1ccccc1)(C(F)(F)F)NC2=O (stereo not given),15%
CCCCNC(=O)NS(=O)(=O)c1cnccc1Sc1ccc(Cl)cc1,15%
CCN(CC(=O)Nc1c(C(=O)OC)[nH]c2ccc(C)cc12)c1ccc2c(c1)OCO2,7%
COc1cc(OC)cc(C(=O)Nc2ncc3c(n2)CC(C)CC3=O)c1 (stereo not given),2%
C/C(=N\NC(=O)c1c[nH]c2ccccc12)c1ccccn1,24%
CN1CCC(=NNC(=O)CN(c2ccc(Oc3ccccc3)cc2)S(C)(=O)=O)CC1,-3%
O=C(NCC1CCCO1)c1ccc(COc2ccc(F)cc2)o1 (stereo not given),3%
Cc1c(NC(=O)CSC2=C(C#N)C(c3ccccc3F)CC(=O)N2)c(=O)n(-c2ccccc2)n1C (stereo not given),-15%
CCOC(=O)c1nc(NCc2ccccc2)sc1C,-4%
CCN(CC)CCNC(=O)c1ccc(NC(=O)c2ccc(F)cc2F)cc1,-5%
CCC1CCC2(CC1)SCC(=O)N2c1ccccc1 (stereo not given),4%
CC(C)n1c(SCC(=O)N2CCN(C(=O)c3ccco3)CC2)nc2c1c(=O)n(C)c(=O)n2C,-11%
CCC(C)c1ccc(OCc2ccc(C(=O)OC)o2)cc1 (stereo not given),4%
COc1ccc(N2C(=NC(=O)C3CCCCC3)SC3CS(=O)(=O)CC32)c(OC)c1 (stereo not given),10%

# Already shown: 7 of the compounds above.
SMILES,N370S GC
CCCCNC(=O)NS(=O)(=O)c1cnccc1Sc1ccc(Cl)cc1,15%
CCN(CC(=O)Nc1c(C(=O)OC)[nH]c2ccc(C)cc12)c1ccc2c(c1)OCO2,7%
COc1cc(OC)cc(C(=O)Nc2ncc3c(n2)CC(C)CC3=O)c1 (stereo not given),2%
C/C(=N\NC(=O)c1c[nH]c2ccccc12)c1ccccn1,24%
CN1CCC(=NNC(=O)CN(c2ccc(Oc3ccccc3)cc2)S(C)(=O)=O)CC1,-3%
O=C(NCC1CCCO1)c1ccc(COc2ccc(F)cc2)o1 (stereo not given),3%
Cc1c(NC(=O)CSC2=C(C#N)C(c3ccccc3F)CC(=O)N2)c(=O)n(-c2ccccc2)n1C (stereo not given),-15%

# Other structures follow:
SMILES,N370S GC
O=C(c1ccc(N2CCC3(CC2)OCCO3)c([N+](=O)[O-])c1)N1CCOCC1,-3%
Cc1cn2c(nc1=O)OC1CC2OC1CO (stereo not given),8%
O=C(Nc1cccn(Cc2c(F)cccc2Cl)c1=O)NC1CCCCC1,19%
CCc1ccc(NC(=O)N2CCC(c3ccccc3)C2)cc1 (stereo not given),9%
CCOC(=O)c1cnc(-c2cccc(OC)c2)[nH]c1=O,-1%
O=C(N=c1ccn(-c2nc3ccccc3nc2NS(=O)(=O)c2ccccc2)cc1)c1ccccc1Cl,-11%
CCCCC(CCC(=O)Nc1ccn(-c2ccccc2)n1)C(=O)O (stereo not given),13%
CS(=O)(=O)N1CCCC(C(=O)NCCCN2CCc3ccccc3C2)C1 (stereo not given),2%
C/C(CC1CC(C)(C)OC1=O)=N/Nc1nc(-c2ccccc2)cs1 (stereo not given),7%
O=C(Nc1ccc(C(=O)O)cc1)/C(=C\C=C\c1ccccc1)NC(=O)c1cccc(Br)c1,4%
CCOc1ccccc1-n1c(COc2ccccc2)nnc1SCC(N)=O,-5%
COc1ccc(C(CCN(Cc2ccc(OC)c(OC)c2)C(=O)CCl)c2ccccc2)cc1 (stereo not given),-1%
COc1ccc(S(=O)(=O)N(CCCN2CCOCC2)Cc2ccc(OC)c(OC)c2)cc1,-3%
O=S(=O)(NC1CCCCC1N1CCCCC1)c1ccc(Cl)cc1 (stereo not given),-1%
O=S(=O)(c1ccc(Br)cc1)N1CCN=C1SCc1cccnc1,-7%

# High-throughput results (PubChem BioAssay)
